PABP polyA inh = blocks human PABP binding to poly(A) RNA | P11940 | fluorescence polarization | inhibition, % at 35 µM | 1% of 290,000 active;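 active = 50% or more with normal probe brightness, or confirmed in later tests; inconclusive = above 50% with abnormal brightness, or retests that disagree; inactive = below 50% or failed in later tests; about a fifth of its hits are not listed in these tables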;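 also: calls also rest on retests at 20 µM and on dose response follow-up; controls were probe without protein and protein plus probe with vehicle; some compounds called inactive have numbers as strong as hits; many hits fall short of the cut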
eIF4H inh = inhibitors of RNA binding by human eIF4H; Q15056; eIF4H fluorescence polarization binding assay; inhibition, % at 35 µM; 0.94% of 290,000 active; AID 2012;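 active = 50% or more with normal probe brightness, or confirmed in later tests; inconclusive = above 50% with abnormal brightness, or retests that disagree; inactive = below 50% or failed in later tests; about a fifth of its hits are not listed in these tables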;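 also: calls also rest on retests at 20 µM and on dose response follow-up; 0% = protein and probe with vehicle and 100% = probe without protein; strong numbers were not always called active; many hits fall short of the cut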
CSC inhib = blocks cancer stem cells. cancer stem cell-like cells viability, luminescence. inhibition, % at 7.5 µM. 1.1% of 300,000 active;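 active = mean at 75% or more and at least half the replicates too; inconclusive = mean and replicates disagree; tested in HMLE shEcad cells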;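 also: 0% = median of negative and 100% = median of positive control wells; the first replicate is given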
MT1-MMP act inh = blocks activation of human MT1-MMP; HT1080 RFP-PRO-GFP cells, GFP/RFP ratio fluorescence, overnight; percent of plate control window, DMSO zero; P50281; 0.061% of 360,000 active; GFP/RFP ratio change, % at 20 µM;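 active = GFP/RFP ratio change of at least 30% with cell ATP level not reduced by more than half and red fluorescence within 50% of control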; also: strong numbers were not always called active
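Assay system: RFP-PRO-GFP reporter HT1080 cells; read-out basis: GFP/RFP fluorescence ratio; benchmarks: DMSO wells and RFP-L50D-GFP cells; doses: 20 µM single dose, 1% DMSO; schedule: overnight cell settling, then overnight compound exposure, 37 °C, 5% CO2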
Env fusion inh = inhibitors of HIV Env-mediated cell fusion | 1.1% of 360,000 active | inhibition, % at 12.3 µM | AID 651610 | HeLa-JRFL Env/CEM21 cell fusion, luciferase;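 active = mean replicate inhibition score of at least 50 and every replicate individually at or above 50; inconclusive = only one of the two criteria met; inactive = mean below 50 and not all replicates reaching 50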;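 also: 0% = plate neutral controls and 100% = maraviroc near 300 nM; one replicate is shown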
Rce1 inhib = blocks yeast Ras-converting enzyme. yeast membranes, quenched prenylated peptide cleavage fluorescence. 0.27% of 290,000 active. calls only. AID 2563;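 active = fall in fluorescence gain of 50% or more versus controls, with final raw signal at or below 3038400; inconclusive = same 50% fall but final raw signal above 3038400; inactive = fall in fluorescence gain under 50%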;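 also: plate controls were neutral control wells for no effect and wells lacking membranes for full effect; tested at 10 µM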
Target sequence (Q03530 whole entry, looked up): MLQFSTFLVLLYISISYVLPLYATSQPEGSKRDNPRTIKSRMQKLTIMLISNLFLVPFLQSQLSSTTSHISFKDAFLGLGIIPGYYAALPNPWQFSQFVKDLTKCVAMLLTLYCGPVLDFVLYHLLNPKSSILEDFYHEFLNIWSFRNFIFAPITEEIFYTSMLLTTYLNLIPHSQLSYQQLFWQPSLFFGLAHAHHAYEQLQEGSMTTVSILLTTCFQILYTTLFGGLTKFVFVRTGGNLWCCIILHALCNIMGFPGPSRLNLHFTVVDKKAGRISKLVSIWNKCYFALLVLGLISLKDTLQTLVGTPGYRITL
UUG fidelity = alters start codon recognition fidelity in yeast; S. cerevisiae UUG-firefly luciferase reporter, luminescence/redox ratio; activity score, % at 18.7 µM; 0.13% of 350,000 active; AID 602363;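 active = replicate mean at a twofold rise or more, about +100% in these data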;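 also: firefly luciferase made from a UUG start codon reports start codon fidelity; reporter light over untreated wells divided by growth signal over untreated wells; some hits fall short of that in this replicate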
eIF4H inh retest = further read-out of eIF4H inh, marked with its call; inhibition, %; compound at 20 µM; confirmation average;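 mean of two retest wells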
PABP polyA inh retest = also measured in PABP polyA inh; calls as there; inhibition, %; compound at 20 µM; confirmation repeats;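 mean of two retest wells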
MT1-MMP act inh RFP = second read-out of MT1-MMP act inh, no call of its own (marks repeat the call); RFP signal change, %; measured here: RFP expression control read;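 0 = vehicle wells; hits needed this value within 50% of zero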
Active calls of the source: *; i = inactive; ? = inconclusive; . = not tested or not shown.

SMILES | PABP polyA inh | eIF4H inh | CSC inhib | MT1-MMP act inh | MT1-MMP act inh RFP | Env fusion inh | Rce1 inhib | UUG fidelity | others
COc1cc(/C=N/n2c(-c3n[nH]c4c3CCC4)n[nH]c2=S)ccc1O | 2 | -2 | -3 | 5 | 3 | 4 | i | .
CC(C)[C@H](NC(=O)OCc1ccccc1)C(=O)OCC(=O)NC1CCCCC1 | 8 | 2 | 6 | -4 | 4 | . | i | 7
CC(C)CCNC(=O)c1onc(CSc2ccc(F)cc2)c1C(=O)NCCC(C)C | . | . | 59 | 1 | -1 | 15 | i | -6
CCOc1ccc(Oc2ccccc2NC(=O)CCNC(C)=O)cc1 | 2 | 1 | 8 | 3 | 6 | -13 | i | -3
CS(=O)(=O)N(CC(=O)N1CCN(Cc2ccccc2)CC1)C1CCCCC1 | -8 | 6 | -6 | 7 | 5 | 0 | i | -17
Cc1cccc(NC(=O)CS(=O)(=O)c2cn(C)c3ccccc23)c1 | -3 | 0 | -7 | 3 | 1 | 6 | i | -8
CN(C)C(=O)c1ccc2c3c(cccc13)CC2 | -8 | -7 | -13 | -3 | 2 | 16 | i | .
CC1=NOC(=O)/C1=C/c1ccc(O)cc1 | -12 | -15 | 2 | -2 | 5 | -10 | . | .
Cc1cc(OC(C)C)nc(NCc2ccccc2)n1 | 0 | 10 | 41 | 5 | 2 | . | i | -9
COC(=O)c1ccccc1NC(=S)NC(=O)c1ccc2c(c1)OCO2 | -2 | -5 | 6 | -3 | 1 | -21 | i | 0
CSc1cccc(CN2CCN(CCC(C)C)C(CCO)C2)c1 (configuration not stated) | -5 | -6 | 45 | 1 | 7 | -15 | i | .
COc1ccc(C(=O)/C=C/c2cn(CN3CCN(C)CC3)c3ccccc23)cc1 | -9 | -2 | 35 | -13 | -15 | . | . | -3
CCn1cc(C(=O)NCCC(=O)NCCO)c(=O)c2cc3c(cc21)OCO3 | -6 | 14 | -15 | 4 | 4 | 0 | i | -5
COCCNC(=O)C(c1ccc(Cl)cc1)N(CCOC)C(=O)CCC(=O)Nc1nccs1 (configuration not stated) | 6 | 2 | 6 | 2 | 4 | -6 | i | .
CCO[C@@H]1OC(C(=O)NCc2ccccc2)=C[C@H](c2ccc3c(c2)OCO3)[C@H]1CCCO | -3 | -13 | -3 | -1 | 0 | 5 | i | -3

Sorted by molar mass (largest number first): 14 of the compounds above.
SMILES | PABP polyA inh | eIF4H inh | CSC inhib | MT1-MMP act inh | MT1-MMP act inh RFP | Env fusion inh | Rce1 inhib | UUG fidelity | others
COCCNC(=O)C(c1ccc(Cl)cc1)N(CCOC)C(=O)CCC(=O)Nc1nccs1 (configuration not stated) | 6 | 2 | 6 | 2 | 4 | -6 | i | .
CCO[C@@H]1OC(C(=O)NCc2ccccc2)=C[C@H](c2ccc3c(c2)OCO3)[C@H]1CCCO | -3 | -13 | -3 | -1 | 0 | 5 | i | -3
CC(C)CCNC(=O)c1onc(CSc2ccc(F)cc2)c1C(=O)NCCC(C)C | . | . | 59 | 1 | -1 | 15 | i | -6
CS(=O)(=O)N(CC(=O)N1CCN(Cc2ccccc2)CC1)C1CCCCC1 | -8 | 6 | -6 | 7 | 5 | 0 | i | -17
CC(C)[C@H](NC(=O)OCc1ccccc1)C(=O)OCC(=O)NC1CCCCC1 | 8 | 2 | 6 | -4 | 4 | . | i | 7
COc1ccc(C(=O)/C=C/c2cn(CN3CCN(C)CC3)c3ccccc23)cc1 | -9 | -2 | 35 | -13 | -15 | . | . | -3
CCn1cc(C(=O)NCCC(=O)NCCO)c(=O)c2cc3c(cc21)OCO3 | -6 | 14 | -15 | 4 | 4 | 0 | i | -5
COC(=O)c1ccccc1NC(=S)NC(=O)c1ccc2c(c1)OCO2 | -2 | -5 | 6 | -3 | 1 | -21 | i | 0
COc1cc(/C=N/n2c(-c3n[nH]c4c3CCC4)n[nH]c2=S)ccc1O | 2 | -2 | -3 | 5 | 3 | 4 | i | .
CCOc1ccc(Oc2ccccc2NC(=O)CCNC(C)=O)cc1 | 2 | 1 | 8 | 3 | 6 | -13 | i | -3
CSc1cccc(CN2CCN(CCC(C)C)C(CCO)C2)c1 (configuration not stated) | -5 | -6 | 45 | 1 | 7 | -15 | i | .
Cc1cc(OC(C)C)nc(NCc2ccccc2)n1 | 0 | 10 | 41 | 5 | 2 | . | i | -9
CN(C)C(=O)c1ccc2c3c(cccc13)CC2 | -8 | -7 | -13 | -3 | 2 | 16 | i | .
CC1=NOC(=O)/C1=C/c1ccc(O)cc1 | -12 | -15 | 2 | -2 | 5 | -10 | . | .

The main list resumes, starting 2 compounds before the break.
SMILES | PABP polyA inh | eIF4H inh | CSC inhib | MT1-MMP act inh | MT1-MMP act inh RFP | Env fusion inh | Rce1 inhib | UUG fidelity | others
COCCNC(=O)C(c1ccc(Cl)cc1)N(CCOC)C(=O)CCC(=O)Nc1nccs1 (configuration not stated) | 6 | 2 | 6 | 2 | 4 | -6 | i | .
CCO[C@@H]1OC(C(=O)NCc2ccccc2)=C[C@H](c2ccc3c(c2)OCO3)[C@H]1CCCO | -3 | -13 | -3 | -1 | 0 | 5 | i | -3
Cc1ccccc1NC(=S)NCc1cccs1 | 6 | -1 | -8 | -4 | -1 | . | i | -1
Cc1ccc(Cn2c(C)c(C(=O)NCc3cccs3)sc2=O)cc1 | . | . | . | 2 | -4 | 11 | . | -16
O=C(CNC(=S)NC(=O)c1ccccc1Br)c1ccccc1 | 83 | -3 | -13 | 5 | 1 | -7 | i | . | eIF4H inh retest=-6;PABP polyA inh retest=-5
CCOc1ccc(NC(=O)CN(C)CC(=O)Nc2ccccc2SC)cc1OCC | -9 | -1 | -3 | 1 | 4 | -89 | i | -17
CCCc1nc2c(nnn2Cc2ccccc2Cl)c(=O)[nH]1 | 7 | -4 | 12 | 0 | 3 | -17 | i | .
CC(c1ccco1)N(C(=O)COc1ccc(Cl)cc1)c1ccccn1 (configuration not stated) | 3 | -1 | 6 | -6 | 1 | . | . | -9
CC(C)C(NS(=O)(=O)c1ccccc1)C(=O)N1CCN(C(=O)c2ccco2)CC1 (configuration not stated) | 5 | 1 | 7 | -3 | 0 | -11 | i | 15
O=C(Cc1nn[nH]n1)NCCC1=CCCCC1 | 16 | 4 | . | -2 | 2 | . | i | -12
CCSc1nnc([C@@H](NC(=O)OC(C)(C)C)C(C)C)o1 | 10 | 4 | 5 | 3 | 2 | 18 | i | 2
CN(C)C1=NC[C@H](Cc2ccccc2)N1CC1CCCC1 | . | . | 8 | 2 | -2 | -13 | . | -18
CC1(C(=O)Nc2ccccc2F)CCN1C(=O)Cc1cc(F)ccc1F (configuration not stated) | . | . | . | 1 | 3 | -8 | . | 3
O=C(NC1CC2CCC(C1)N2Cc1ccco1)c1ccccc1 (configuration not stated) | -5 | 15 | 2 | 0 | 7 | 2 | i | 30
CCOC(=O)N1CCN(c2ncnc3nc[nH]c23)CC1 | -5 | 6 | -2 | 1 | 3 | -26 | i | -16
CC(=O)CSc1ccc(C(=O)O)cn1 | -4 | -1 | -1 | -2 | 2 | -14 | i | -20
CN1/C(=C\C(=O)Nc2cccc(Cl)c2)C(C)(C)c2ccccc21 | 5 | -6 | 43 | 8 | 6 | 11 | i | -19
COc1ccc(/C(C)=N/NC(=O)c2cc(C)[nH]n2)c(OC)c1 | -7 | -13 | . | 3 | 3 | -2 | i | -19
O=C(C1CC1)N1N=C(c2ccc(Cl)cc2)CC1(O)C(F)(F)F (configuration not stated) | -3 | -4 | 6 | -1 | -2 | -8 | i | -10
CC(=O)Nc1ccc(S(=O)(=O)Nc2nc(C)nc3sc(C)c(C)c23)cc1 | . | . | -17 | 5 | 3 | . | . | -4
CN(CC(=O)Nc1ccc(Cl)c(C(F)(F)F)c1)C(=O)c1ccc(OCC2CCCO2)cc1 (configuration not stated) | . | . | -6 | -8 | -27 | ? | i | .
NC(=O)c1ccsc1NC(=O)CSc1nncs1 | . | . | . | -1 | 0 | -143 | . | -7
COc1ccccc1CNC(=O)CSc1ccc(-c2ccncc2)nn1 | -2 | 1 | -5 | -4 | -2 | 2 | i | .
O=C(CC(=O)c1ccccc1)Nc1cc([N+](=O)[O-])ccc1Cl | 12 | -6 | -5 | 1 | -4 | -16 | i | -7
Cc1ccc(-c2cc(C(=O)OCC(=O)N(C)C3CCS(=O)(=O)C3)c3ccccc3n2)o1 (configuration not stated) | 4 | 26 | -4 | 0 | 8 | 19 | i | .
CCCc1sc(N/N=C/c2ccccn2)nc1-c1ccc(Br)cc1 | -1 | 2 | 126* | -7 | -15 | . | i | -3
COc1ccc2c(c1)[C@H]1[C@H](CO2)[C@H](c2ccccc2)[C@]2(C)C(=O)Nc3ccc(Cl)cc3C(=O)N12 | . | . | . | -21 | -15 | 49 | . | -11
COc1ccc(C(=O)NCC(=O)N2CCN(C(=O)c3ccco3)CC2)cc1OC | . | . | . | -2 | 4 | -41 | . | -9
COc1ccc(NC(=O)c2cccc3c2C(=O)c2ccc(-c4ccc(F)cc4OCc4ccccc4)cc2S3(=O)=O)cc1 | . | . | 9 | -4 | 0 | -6 | . | -6
CN1C(=O)N(CC(=O)N2CCN(S(=O)(=O)Cc3ccccc3)CC2)C(=O)C12CCCCC2 | . | . | . | 2 | -5 | 36 | . | -13
Nc1cc(-c2cccc([N+](=O)[O-])c2)[nH]n1 | -10 | -12 | -10 | -3 | -2 | 8 | i | .
CCOC(=O)[C@@H]1[C@H]2COc3ccccc3[C@H]2N2C(=O)N(c3cccc(Cl)c3)C(=O)[C@]12C | . | . | -6 | 5 | 0 | ? | . | -16
CSc1ccc(CNc2cccc3ccccc23)cc1 | 30 | 32 | 9 | 5 | 7 | . | i | -21
